# eIF4H FP inh: inhibitors of RNA binding by human eIF4H. Q15056. eIF4H fluorescence polarization binding assay. inhibition, % at 35 µM. 290,000 compounds, 0.94% hits. AID 2012;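 active = 50% or more with normal probe brightness, or confirmed in later tests; inconclusive = above 50% with abnormal brightness, or retests that disagree; inactive = below 50% or failed in later tests; about a fifth of its hits are not listed in these tables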;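 note: calls also rest on retests at 20 µM and on dose response follow-up; 0% = protein and probe with vehicle and 100% = probe without protein; strong numbers were not always called active; many hits fall short of the cut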
# UUG fidelity: modulators of start codon recognition fidelity in yeast. S. cerevisiae UUG-firefly luciferase reporter, luminescence/redox ratio. activity score, % at 18.7 µM. 350,000 compounds, 0.13% hits. AID 602363;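 active = replicate mean at a twofold rise or more, about +100% in these data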;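 note: firefly luciferase made from a UUG start codon reports start codon fidelity; reporter light over untreated wells divided by growth signal over untreated wells; some hits fall short of that in this replicate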
# MT1-MMP act inh: blocks activation of human MT1-MMP; P50281; HT1080 RFP-PRO-GFP cells, GFP/RFP ratio fluorescence, overnight; percent of plate control window, DMSO zero; GFP/RFP ratio change, % at 20 µM; 360,000 compounds, 0.061% hits; AID 651647;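 active = GFP/RFP ratio change of at least 30% with cell ATP level not reduced by more than half and red fluorescence within 50% of control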; note: strong numbers were not always called active
#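 Test system: HT1080 cells expressing an RFP-PRO-GFP fluorescent reporter construct / Compound dosing: single-point 20 µM compound, 1% DMSO / Schedule: cells overnight before dosing, compound overnight, 37 °C, 5% CO2 / Evaluation: GFP/RFP fluorescence ratio / Control set: DMSO and RFP-L50D-GFP cell wells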
# Env fusion inh: inhibitors of HIV Env-mediated cell fusion; 360,000 compounds, 1.1% hits; inhibition, % at 12.3 µM; HeLa-JRFL Env/CEM21 cell fusion, luciferase; AID 651610;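 active = mean replicate inhibition score of at least 50 and every replicate individually at or above 50; inconclusive = only one of the two criteria met; inactive = mean below 50 and not all replicates reaching 50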;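 note: 0% = plate neutral controls and 100% = maraviroc near 300 nM; one replicate is shown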
# PABP polyA inh: PABP-poly(A) binding inhibition. PABP-poly(A) RNA binding, fluorescence polarization. 290,000 compounds, 1% hits. inhibition, % at 35 µM. P11940;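 active = 50% or more with normal probe brightness, or confirmed in later tests; inconclusive = above 50% with abnormal brightness, or retests that disagree; inactive = below 50% or failed in later tests; about a fifth of its hits are not listed in these tables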;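 note: calls also rest on retests at 20 µM and on dose response follow-up; controls were probe without protein and protein plus probe with vehicle; some compounds called inactive have numbers as strong as hits; many hits fall short of the cut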
# Target sequence (P11940 whole entry, looked up): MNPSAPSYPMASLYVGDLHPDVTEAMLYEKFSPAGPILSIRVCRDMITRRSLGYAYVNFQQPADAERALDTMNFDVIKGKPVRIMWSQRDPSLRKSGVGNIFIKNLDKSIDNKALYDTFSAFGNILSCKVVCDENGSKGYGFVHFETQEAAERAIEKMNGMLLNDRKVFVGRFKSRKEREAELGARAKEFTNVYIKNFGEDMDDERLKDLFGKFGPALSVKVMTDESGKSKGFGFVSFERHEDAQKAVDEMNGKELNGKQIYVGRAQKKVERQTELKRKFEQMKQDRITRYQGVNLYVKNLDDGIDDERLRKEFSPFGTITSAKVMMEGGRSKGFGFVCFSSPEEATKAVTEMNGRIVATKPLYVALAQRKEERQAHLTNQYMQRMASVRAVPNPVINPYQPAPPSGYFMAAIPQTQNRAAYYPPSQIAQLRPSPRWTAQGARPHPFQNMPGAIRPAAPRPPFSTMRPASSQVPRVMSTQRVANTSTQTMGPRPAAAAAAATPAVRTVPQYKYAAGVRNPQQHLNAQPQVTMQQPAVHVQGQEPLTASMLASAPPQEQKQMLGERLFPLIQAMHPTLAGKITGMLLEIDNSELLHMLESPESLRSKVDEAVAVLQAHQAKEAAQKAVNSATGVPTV
# CSC inhib: blocks cancer stem cells. cancer stem cell-like cells viability, luminescence. inhibition, % at 7.5 µM. 300,000 compounds, 1.1% hits. AID 2717;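 active = mean at 75% or more and at least half the replicates too; inconclusive = mean and replicates disagree; tested in HMLE shEcad cells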;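 note: 0% = median of negative and 100% = median of positive control wells; the first replicate is given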
# Rce1 inh: inhibitors of yeast Ras-converting enzyme; Q03530; yeast membranes, quenched prenylated peptide cleavage fluorescence; calls only; 290,000 compounds, 0.27% hits; AID 2563;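 active = fall in fluorescence gain of 50% or more versus controls, with final raw signal at or below 3038400; inconclusive = same 50% fall but final raw signal above 3038400; inactive = fall in fluorescence gain under 50%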;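 note: plate controls were neutral control wells for no effect and wells lacking membranes for full effect; tested at 10 µM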
# Target sequence (Q03530 whole entry, looked up): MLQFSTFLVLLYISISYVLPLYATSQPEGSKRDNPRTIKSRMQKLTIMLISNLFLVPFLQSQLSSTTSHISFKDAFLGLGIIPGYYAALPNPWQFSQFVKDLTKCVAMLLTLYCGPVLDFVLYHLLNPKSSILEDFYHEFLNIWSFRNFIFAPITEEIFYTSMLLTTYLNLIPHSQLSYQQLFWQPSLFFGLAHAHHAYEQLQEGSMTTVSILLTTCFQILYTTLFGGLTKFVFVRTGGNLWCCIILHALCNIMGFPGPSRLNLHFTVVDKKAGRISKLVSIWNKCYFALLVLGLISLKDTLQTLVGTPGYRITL
# eIF4H FP inh retest: recorded beside eIF4H FP inh, whose call it bears; inhibition, %; compound at 20 µM; confirmation average;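 mean of two retest wells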
# PABP polyA inh retest: further read-out of PABP polyA inh, marked with its call; inhibition, %; compound at 20 µM; confirmation repeats;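 mean of two retest wells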
# MT1-MMP act inh RFP: further read-out of MT1-MMP act inh, marked with its call; RFP signal change, %; measured here: RFP expression control read;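 0 = vehicle wells; hits needed this value within 50% of zero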
# * = called active by the depositor; i = inactive; ? = inconclusive; . = not tested or not shown; + = active, no number.
SMILES,eIF4H FP inh,UUG fidelity,MT1-MMP act inh,MT1-MMP act inh RFP,Env fusion inh,PABP polyA inh,CSC inhib,Rce1 inh,others
CCn1c2ccccc2c2cc(/C=N/NC(=O)c3cccc(C)c3)ccc21,-2.0,-12.0,-4.3,-12.2,-11.8,8.3,48.3,i,
O=C(O)Cc1ccc(S(=O)(=O)N2CCCC2)s1,.,4.0,-2.4,4.3,-8.3,.,-16.7,.,
CC(C)c1ccc(NC(=O)N2CCc3nc(NCc4cccc(Oc5ccccc5)c4)ncc3C2)cc1,.,-4.4,-2.6,-26.5,-0.6,.,.,.,
CCn1c(-c2c[nH]c3ccccc23)n[nH]c1=S,-12.5,-24.7,3.3,-3.4,.,3.5,-4.6,i,
CCN1CCN(C(=O)c2cccc(OC3CCN(S(C)(=O)=O)CC3)c2)[C@@H](C)C1=O,4.8,-4.3,1.2,2.6,3.4,-7.4,8.4,i,
Cc1ccc(C)c(C2=NNC(=NCc3ccccc3)SC2)c1,-5.8,-34.8,-4.6,4.1,-3.7,-3.3,.,i,
O=S(=O)(CCN1CCN(c2ccccc2O)CC1)c1cc(Cl)ccc1Cl,.,-7.5,0.3,1.7,4.2,.,.,.,
CCOc1ccccc1/C=N/n1nnnc1N,3.4,4.7,1.4,-0.6,-42.2,-4.6,-6.8,i,
COc1ccccc1N=C(C)C1=C(O)COC1=O,-10.4,-11.1,-4.8,4.5,-37.3,-0.3,-6.5,i,
CCn1c(SCC(=O)N/N=C(/C)c2ccncc2)nc2ccccc21,-3.6,-9.4,-0.5,-3.5,-2.3,0.5,-10.9,i,
CC1=CC(=O)[C@@H](O)[C@@H](c2ccccc2Br)N1C,.,-5.8,1.9,3.9,49.4,.,.,.,
COc1ccc2c(c1OC)C(=O)OC2CC(=O)c1ccc(O)cc1 (configuration not stated),1.2,-2.6,4.3,8.8,.,-1.7,-3.4,i,
O=C(CNc1cccc([N+](=O)[O-])c1)N/N=C/c1ccc(F)cc1,-3.5,-1.0,2.9,-3.5,3.8,-11.3,-10.6,i,
CCOC(=O)C(C)(C)N(Cc1cccc(C)c1)S(=O)(=O)c1cccc([N+](=O)[O-])c1,-5.9,-2.5,-1.8,-7.2,?,-0.8,-14.1,i,
CC1(C)Cc2c(cnn2-c2ccccc2)C(NC(=O)C2(C(N)=O)CC2)C1 (configuration not stated),6.9,-1.2,-3.4,0.7,0.1,16.0,-18.5,i,
CCCCCCn1c(CN2CCCCC2)nc2c1c(=O)n(C)c(=O)n2C,.,-6.1,3.4,-0.9,-9.9,.,3.6,i,
COc1ccc(S(N)(=O)=O)cc1C(=O)NNC(=O)c1cccc(S(=O)(=O)N2CCOCC2)c1,.,-6.8,1.6,2.3,4.8,.,.,.,
CCOC(=O)c1c2ccccc2[n+]([O-])n1CCO,.,-14.1,5.9,-0.7,7.4,.,0.0,i,
CC(=O)c1ccc(OCC(C)C)c(CN2CCCCC2)c1,3.6,-15.6,3.8,5.0,.,2.7,8.6,i,
Cc1c(C(=O)O)c(C(=O)O)nc2ccc(N3CCOCC3)cc12,97.8,.,.,.,.,-17.4,0.6,i,eIF4H FP inh retest=-5.5;PABP polyA inh retest=-1.2
CC(C)C[C@H](NC(=O)N1CC(=O)Nc2ccccc21)C(=O)N[C@@H](Cc1c[nH]c2ccccc12)C(=O)O,-1.5,-20.0,-3.8,-1.6,.,5.6,1.0,i,
COC(=O)c1cc(CNC(=O)C(C)NS(=O)(=O)c2ccc(C)c(C)c2)ccc1OC (configuration not stated),3.4,-0.2,-3.5,1.6,2.9,-0.6,-14.7,i,
Cc1nc2ccc(N=NC3=C(O)CC(C)(C)CC3=O)cc2s1,-14.4,-19.3,2.5,0.0,-10.2,-3.5,-7.1,i,
CC(=O)Nc1ccc(C(=O)Nc2ccc(S(=O)(=O)NCC3CCCO3)cc2)cc1 (configuration not stated),-9.4,-11.3,7.1,0.9,12.9,6.3,-2.8,i,

# Reprinted at random: 3 compounds from above.
SMILES,eIF4H FP inh,UUG fidelity,MT1-MMP act inh,MT1-MMP act inh RFP,Env fusion inh,PABP polyA inh,CSC inhib,Rce1 inh,others
CCN1CCN(C(=O)c2cccc(OC3CCN(S(C)(=O)=O)CC3)c2)[C@@H](C)C1=O,4.8,-4.3,1.2,2.6,3.4,-7.4,8.4,i,
CC1(C)Cc2c(cnn2-c2ccccc2)C(NC(=O)C2(C(N)=O)CC2)C1 (configuration not stated),6.9,-1.2,-3.4,0.7,0.1,16.0,-18.5,i,
COc1ccc2c(c1OC)C(=O)OC2CC(=O)c1ccc(O)cc1 (configuration not stated),1.2,-2.6,4.3,8.8,.,-1.7,-3.4,i,

# (continued)
SMILES,eIF4H FP inh,UUG fidelity,MT1-MMP act inh,MT1-MMP act inh RFP,Env fusion inh,PABP polyA inh,CSC inhib,Rce1 inh,others
CCc1ccc(N=C2NC(=O)/C(=C/c3cc(OC)c(O)c(OC)c3)S2)cc1,-21.5,-9.4,-87.9,14.6,-30.4,3.1,68.2,i,
NC(=O)Nc1ccc(C(=O)OCC(=O)Nc2sccc2C(N)=O)cc1,.,-15.9,0.4,-3.6,2.8,.,.,.,
CS(=O)(=O)c1ccc2nc(NC(=O)CCN3C(=O)c4ccccc4C3=O)sc2c1,-6.5,.,0.2,5.3,-2.5,5.3,-18.0,i,
O=C(OCc1ccccc1)N1C=CCC[C@@H]1c1c(Cl)cccc1Br,.,2.5,1.0,-8.4,12.5,.,.,.,
COc1ccccc1NCC(O)Cn1c2ccccc2c2ccccc21 (configuration not stated),-13.2,-9.8,-0.5,-13.1,1.0,4.3,52.2,.,
CCOC(=O)Cn1cnc2c(nnn2-c2ccc(F)cc2)c1=O,-0.5,-2.5,9.4,8.6,-9.4,4.1,-0.1,i,
COC(=O)c1cccc(NC(=O)Cc2coc3cc(OC)ccc23)c1,0.7,-11.8,0.9,-6.4,6.6,13.8,-0.7,i,
CCOC(=O)N1CCN(Cc2nc3c(c(=O)n(C)c(=O)n3C)n2Cc2ccccc2)CC1,-4.6,2.3,0.1,2.2,-9.0,-13.7,6.0,i,
O=[N+]([O-])c1ccccc1S(=O)(=O)N1CCN(CC2CC=CCC2)CC1 (configuration not stated),17.8,.,-0.1,5.0,-3.0,-7.3,0.9,i,
CC(C)C(CCN1C(=O)c2ccccc2C1=O)c1ccco1 (configuration not stated),-3.9,-5.5,1.7,-0.7,17.6,-5.2,-2.0,i,
CNc1nc(CC(C)=O)ns1,-1.2,-16.8,-1.4,2.4,.,5.2,-3.6,i,
COc1ccc(/C=C/c2onc(C)c2S(=O)(=O)N2CCC(C(=O)N3CCC(C)CC3)CC2)cc1,-5.4,-17.9,-5.6,-21.7,16.5,-2.3,46.6,i,

# Compounds shown so far containing fluorine:
SMILES,eIF4H FP inh,UUG fidelity,MT1-MMP act inh,MT1-MMP act inh RFP,Env fusion inh,PABP polyA inh,CSC inhib,Rce1 inh,others
O=C(CNc1cccc([N+](=O)[O-])c1)N/N=C/c1ccc(F)cc1,-3.5,-1.0,2.9,-3.5,3.8,-11.3,-10.6,i,
CCOC(=O)Cn1cnc2c(nnn2-c2ccc(F)cc2)c1=O,-0.5,-2.5,9.4,8.6,-9.4,4.1,-0.1,i,

# Continued.
SMILES,eIF4H FP inh,UUG fidelity,MT1-MMP act inh,MT1-MMP act inh RFP,Env fusion inh,PABP polyA inh,CSC inhib,Rce1 inh,others
O=C(CCNC(=O)c1ccccc1Cl)NN=Cc1ccccc1[N+](=O)[O-],.,.,-4.5,1.1,7.0,.,-10.5,.,
Cc1ccc(C)c(Cn2c(C)nc3c(sc(=S)n3-c3ccccc3)c2=O)c1,1.8,-12.3,0.9,2.0,-2.7,9.5,-3.2,i,
CC[C@@]1(C(=O)OC)N[C@H](CN(C)C(=O)c2ccc(F)cc2)[C@@H]2C(=O)N(C)C(=O)[C@@H]21,.,2.9,1.0,5.6,2.1,.,.,.,
O=C(N=C1SC2CS(=O)(=O)CC2N1c1ccc(F)cc1)C1CC1 (configuration not stated),-10.7,-17.8,-5.2,1.3,4.3,-6.5,-17.3,i,
OCCC1CN(CC2CC2)CCN1Cc1ccc(F)c(F)c1 (configuration not stated),2.6,-14.9,-9.9,-3.2,4.2,-6.8,4.8,i,
CCOC(=O)c1ccc2c(c1)[nH]c(=S)n2CC,-9.9,-25.4,2.8,6.1,-19.4,-9.1,-9.8,i,
O=C1Nc2ccccc2/C1=C/c1ccc([N+](=O)[O-])cc1,1.9,.,-4.3,-9.0,7.6,0.1,7.6,i,
COc1ccc(OCCNC(=O)c2ccccc2Cl)cc1,-5.6,-3.7,2.8,5.3,5.4,3.7,5.0,i,
C=CCn1c(NCc2ccccc2OC)nc2ccccc21,-6.9,-15.4,0.4,-4.2,4.1,4.1,-6.3,i,
O=C(CN(C(=O)c1csnn1)c1ccc(Cl)cc1)NCc1ccc2c(c1)OCO2,-0.9,.,-3.0,1.2,-17.8,6.7,-0.2,i,
CN(Cc1ccccn1)C(=O)c1ccc2nc(Cc3cccc(Cl)c3)oc2c1,-0.5,10.4,20.1,-4.0,1.7,0.5,-0.9,.,
COC(=O)C(NC(=O)c1ccccc1)C(C)(C)SCc1ccccc1 (configuration not stated),.,5.4,-0.3,0.8,-2.4,.,.,.,
O=C(c1ccc(NS(=O)(=O)c2ccc(F)cc2)cc1)N1CCCCC1,.,.,1.3,-0.8,.,.,-12.9,i,
O=C1C=C(c2ccc(Br)c3ccccc23)C[C@@H](c2ccc3c(c2)OCO3)C1,.,-8.4,2.5,2.5,8.2,.,20.4,.,
O=C(N/C(=C\c1cccnc1)C(=O)N1CCC(O)CC1)c1ccccc1,-13.6,-14.7,-1.3,-0.5,-7.0,-8.1,-0.8,i,
C[C@]12CS(=O)(=O)C[C@H]1SC(=S)N2c1ccccc1,4.8,.,2.2,1.1,3.3,21.1,-6.0,i,
CCOc1ccc(NC(=O)CN(C)C(=O)c2cc(S(=O)(=O)N3CCCCCC3)ccc2OC)cc1OCC,.,25.9,-0.1,-2.8,-15.8,.,4.3,i,
Nn1c(SCC(=O)Nc2ccc3c(c2)OCO3)nnc1-c1ccccc1,3.3,-23.7,-0.3,-2.4,-39.3,-2.0,-4.3,i,
Cc1ccc(C(=O)CSc2nnnn2-c2ccccc2)o1,4.4,.,-3.7,2.0,1.7,-6.8,5.6,i,
Nc1c(C(=O)NCCN2CCOCC2)c2nc3ccccc3nc2n1-c1cccc(F)c1,-5.4,9.3,-0.5,0.7,.,11.4,13.1,+,
C#CCN(C[C@@H]1[C@@H](OC(=O)NC2CCCC2)[C@@H](OC(=O)NC2CCCC2)Cn2c(=O)ccc(=O)n21)S(=O)(=O)c1ccc(C)cc1,.,-9.7,-8.9,-34.8,32.5,.,.,.,
COc1ccc(C2Nc3ccccc3C(=O)N2Cc2ccccc2)cc1OC (configuration not stated),.,-14.2,-11.9,-3.3,12.6,.,-9.3,i,
CCC1SC2=NC(C)=C(C(=O)OCCOC)C(c3ccc(C(=O)OC)cc3)N2C1=O (configuration not stated),-1.2,7.0,-43.8,-27.1,.,3.1,-1.4,i,
NC(=O)CC(NC(=O)c1ccccc1)c1ccc(N2CCN(c3ccccn3)CC2)c([N+](=O)[O-])c1 (configuration not stated),7.2,-4.4,6.0,-3.3,12.2,6.7,12.5,i,
COc1ccc(OC)c(/C=C(\C)C(=O)c2c(C)cc(C)[nH]c2=O)c1,.,-2.8,-0.9,-2.0,-8.8,.,15.8,i,

# Screening results as filed in PubChem BioAssay.

# Only part of the results is shown, so the mix of outcomes need not match the whole.
